Compound activity: PubChem, several laboratories
AF4-AF9 inh: inhibitors of AF4 peptide binding to AF9, primary screen, biochemical, AlphaScreen, biotin-AF4 peptide, FLAG-AF9, single point. Protein AF-9 (Homo sapiens), P42568. inhibition, % at 10 µM. 350,000 tested, 0.47% active. AID 651704, 2012;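 active = every replicate reaching a set inhibition limit, whatever the replicate mean, cut at about 25% in these data; inconclusive = mean inhibition reaches that limit but some replicates miss it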;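 also: 0% = plate neutral control median and 100% = total signal loss; the record names both 10 and 1 µM as test concentration; the first replicate is given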
Target sequence (P42568 whole entry, looked up): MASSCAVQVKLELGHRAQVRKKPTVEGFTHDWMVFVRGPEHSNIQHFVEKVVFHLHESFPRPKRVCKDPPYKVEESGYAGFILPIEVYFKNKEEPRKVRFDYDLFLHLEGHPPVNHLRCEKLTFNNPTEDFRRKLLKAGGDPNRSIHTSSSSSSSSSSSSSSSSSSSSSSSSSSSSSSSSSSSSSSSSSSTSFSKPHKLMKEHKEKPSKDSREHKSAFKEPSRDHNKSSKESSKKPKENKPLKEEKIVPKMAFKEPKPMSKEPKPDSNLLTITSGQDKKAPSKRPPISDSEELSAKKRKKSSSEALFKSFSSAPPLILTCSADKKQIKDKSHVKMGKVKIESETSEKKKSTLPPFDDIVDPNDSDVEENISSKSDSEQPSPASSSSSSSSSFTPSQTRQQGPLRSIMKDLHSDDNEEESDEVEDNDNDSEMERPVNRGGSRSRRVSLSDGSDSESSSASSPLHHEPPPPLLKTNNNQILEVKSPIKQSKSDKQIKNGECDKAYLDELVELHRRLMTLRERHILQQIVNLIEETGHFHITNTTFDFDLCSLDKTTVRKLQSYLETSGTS
Vif TR-FRET: inhibitors of Vif binding to APOBEC3G peptide, primary screen, biochemical, TR-FRET, GST-Vif 1-94, biotin-A3G peptide, dose response retest (AID 1117319). Virion infectivity factor (Human immunodeficiency virus type 1 group M subtype B (isolate …. TR-FRET GST-Vif / biotin-A3G peptide binding; higher % means a stronger effect; test concentration not given here; strong numbers were not always called active. 260,000 tested, 0.57% active. one-dose inhibition, %; IC50 in µM for titrated hits;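 active = above the screen mean plus three standard deviations and confirmed in dose response; inconclusive = results disagree or hit not tested in dose response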;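 also: Vif residues 1-94 fused to GST binding biotinylated APOBEC3G peptide 110-148; 0% = full assay without inhibitor and 100% = GST in place of GST-Vif; retest series ran down from 100 µM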
rRNA inh HTS: reduced GFP signal of wild-type E. coli, primary screen, bacterial rRNA inhibitor project, GFP/RFP fluorescence, OD600, single point; E. coli WT GFP vs humanized-ribosome RFP mutants, 24 h; active compounds read low; DMSO median 0, no signal -100; AID 720706, 2013; GFP signal change (wild-type ribosome), % (no concentration beside the values); 350,000 tested, 1.6% active;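 active = significant combined selectivity score with lowered wild-type GFP, culture density cut under 30%, mutant RFP and density less affected; inactive = any of these conditions unmet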; also: one replicate is shown; some compounds called inactive have numbers as strong as hits
rRNA inh HTS OD600: further read-out of rRNA inh HTS, marked with its call; OD600 change, %; measured here: OD600 growth;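 optical density of the mix in the first replicate; 0 = DMSO median and -100 = no signal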
rRNA inh HTS RFP: recorded beside rRNA inh HTS, whose call it bears; RFP signal change, %; measured here: RFP humanized mutant strains;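 first replicate; 0 = DMSO median and -100 = no signal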
* = called active by the depositor; ? = inconclusive; & = joins results of further samples. These rows are one share of the data, so the mix of outcomes need not match the whole.

SMILES	AF4-AF9 inh	Vif TR-FRET	rRNA inh HTS	rRNA inh HTS OD600	rRNA inh HTS RFP
O=C(C=Cc1ccco1)c1cc(Cl)ccc1O	2.7	-2%	-10	-23	-0.5
O=C(COc1ccc(F)cc1)Nc1nc(-c2cccnc2)cs1	1.9	5%	13	6	6.5
NC(=O)c1ccsc1NC(=O)COC(=O)Cc1ccc(F)cc1	-3.6	1%	-20*	-11*	8.3*
C=C1C(=O)N(C)CCC1C(CC)C(=O)OC (configuration not stated)	-1.5	0%	-1	0	-6.2
O=c1ccn2c(n1)SC(c1ccccc1)C2 (configuration not stated)	-6.9	5%	5	12	-0.6
Nc1ncnc2nn(C3OC(CO)C(O)C3O)nc12 (configuration not stated)	-3.7	0%	5	9	-3.8
CC(=O)Nc1ccc(NC(=O)C(C)OC(=O)CN2C(=O)C3CCCCC3C2=O)cc1 (configuration not stated)	-0.3	-1%	7	5	-1.1
COc1ccc(NC(=O)c2ccc(NC(=O)CN3CCN(c4ccccc4O)CC3)cc2)cc1	4.0	-4%	0	1	-1.5
CCc1c(O)nc(SCC(=O)Nc2ccccc2)n(-c2ccccc2C)c1=O	-2.2	0%	3	11	-2.3
O=S1(=O)c2ccccc2OC(COCc2ccccc2)CN1C1CC1 (configuration not stated)	-2.0	-1%	-21	-19	1.4
Cc1c(C=C(C#N)c2ccc([N+](=O)[O-])cc2)c(=O)n(-c2ccccc2)n1C	0.5	-2%	-7	-6	0.2
COc1ccc(S(=O)(=O)N2CCOCC2)cc1NC(=O)COc1ccc(C(C)=O)cc1OC	2.2	-11%	3	2	-0.6
O=C(c1ccccc1)N1CCOC(O)(c2ccccc2)C1c1ccccc1 (configuration not stated)	-3.2	-3%	0	-10	-3.4
Cc1cnc(CN(C)C(=O)C2CCC(=O)N(CCc3ccc(Cl)cc3)C2)[nH]1 (configuration not stated)	-2.2	2%	5	16	-3.8
O=C(c1ccc(Cl)cc1)N1CCC2CC1c1cc(-c3ccccc3)ccc12 (configuration not stated)	-3.4	-5%	-3	-12	-0.8
COc1ccc(C(=O)N2CCN(c3cccc(C)c3C)CC2)cc1S(=O)(=O)NC1CC1	1.8	3%	-3	-18	9.1
COc1ccc(-c2cc(C(=O)N(C)CC(=O)Nc3cccc(F)c3)c3ccccc3n2)cc1OC	0.7	-8%	2	-61	39
Cc1cccc(OC(C)C(=O)Nc2nc(-c3ccncc3)cs2)c1 (configuration not stated)	-2.1	-7%	2	5	-2.0
CNC[C@H]1OCCCC[C@H](C)Oc2ccc(NC(=O)CCCN(C)C)cc2C(=O)N([C@H](C)CO)C[C@@H]1C	7.9&-10&-1.0	2%	5&5	11&6	-0.5&-2.2
C1=C\CCC2(OCCO2)C2(CC/1)OCCO2	-2.5	-5%	12	18	-2.8
O=C(NCc1cccs1)c1ccc(Cl)c(S(=O)(=O)N2CCOCC2)c1	-0.2	1%	6	0	2.9
C[C@H](O)[C@@H]1C(=O)N2CCc3c([nH]c4ccccc34)[C@@H]2C[C@@H]1N(C)S(=O)(=O)c1ccccc1	-1.1	-6%	-3	-5	0.8
S=c1nc[nH]c2c1ncn2-c1ccc(Cl)cc1	11	0%	6	8	-0.1
Cc1ccc(NC(=O)c2ncn(CCCNCC3CCCCC3)n2)cc1C	3.0	1%	7	7	1.5
NC(=O)NN=C1CCn2cccc21	3.3	-7%	7	12	5.3
O=C1C(c2ccccc2)c2ccccc2N1Cc1ccccc1 (configuration not stated)	-2.0	-2%	-20*	-20*	4.9*
CCOC(=O)C1=C(C)OC(=Cc2ccccc2)C1=O	2.2	5%	2	2	-0.2
COc1ccc(C=NCCc2ccc(OC)c(OC)c2)cc1OC	1.8	-2%	6	18	-4.9
CN(Cc1ccccc1)C(=O)c1cccc(NC(=O)Cc2ccc(NC(=O)C3CCN(C(=O)C4CC4)CC3)cc2)c1	2.8	2%	-6	-1	3.5
O=c1nc(NO)ccn1C1CCCO1 (configuration not stated)	-1.4	-4%	11	18	0.3
C[C@@H]1CN([C@H](C)CO)C(=O)CCCn2nncc2CO[C@H]1CN(C)C(=O)c1cc(-c2ccccc2)on1	-0.5&-0.3	0%	3&-1	8&0	3.0&0.9
CC(C)C1C(=O)N(Cc2cn(Cc3ccco3)nn2)CCS(=O)(=O)N1Cc1ccc(-c2ccc(F)cc2)cc1 (configuration not stated)	-2.8	-2%	4	16	2.0
CCOC(=O)CC1C(=O)NCCN1C(=S)NC(=O)c1ccc(C)c(Br)c1 (configuration not stated)	0.5	0%	-4	-4	-3.7
CC1=C(C(=O)N(C)C)CC(CC(=O)NCCc2ccccn2)C(=O)N1Cc1ccccc1 (configuration not stated)	-1.4	0%	22	15	7.8
Nc1ccc(C=C2C=Cc3ccccc32)cc1	?	0%	-62	-80	-19
O=C(Nc1ccc2c(c1)OCO2)c1cnc(Cl)c(Cl)c1	-0.8	4%	17	16	2.2

3 compounds out of the list above, arranged by the value under rRNA inh HTS OD600, high to low:
SMILES	AF4-AF9 inh	Vif TR-FRET	rRNA inh HTS	rRNA inh HTS OD600	rRNA inh HTS RFP
O=C(Nc1ccc2c(c1)OCO2)c1cnc(Cl)c(Cl)c1	-0.8	4%	17	16	2.2
CN(Cc1ccccc1)C(=O)c1cccc(NC(=O)Cc2ccc(NC(=O)C3CCN(C(=O)C4CC4)CC3)cc2)c1	2.8	2%	-6	-1	3.5
CCOC(=O)CC1C(=O)NCCN1C(=S)NC(=O)c1ccc(C)c(Br)c1 (configuration not stated)	0.5	0%	-4	-4	-3.7

Going on with the list:
SMILES	AF4-AF9 inh	Vif TR-FRET	rRNA inh HTS	rRNA inh HTS OD600	rRNA inh HTS RFP
CCCC1OC(c2cc3c(cc2Cl)OCO3)OCC1CC (configuration not stated)	1.6	-4%	7	-7	1.0
COc1ccc(N2CCN(CC(=O)Nc3ccccc3C(=O)NC(C)c3ccccc3)CC2)cc1 (configuration not stated)	15	-2%	-14	-8	3.7
O=C(c1cc(=O)[nH]c2ccccc12)N1CCN(Cc2ccc3c(c2)OCO3)CC1	1.0	2%	4	6	0.8
O=S(=O)(c1ccccc1)N1CCN(Cc2nnc(-c3ccccc3)o2)CC1	-4.3	1%	-3	-5	-1.0
C#CCN(C[C@@H]1[C@@H](OC(=O)NCc2ccccc2F)[C@@H](OC(=O)NCc2ccccc2F)CN(C(=O)OC(C)C)N1C(=O)OC(C)C)S(=O)(=O)c1ccc(C)cc1	-3.1	-1%	12	12	-0.8
COc1ccc(N2CCN(C(=O)CCCCCn3c(=S)[nH]c4ccc(N5CCOCC5)cc4c3=O)CC2)cc1	-1.2	-50%	-7	-6	8.2
C[C@@H]1C(c2ccc(F)cc2)=NN(c2ccc(Br)cc2)[C@H]1C(=O)N1CCOC1=O	-0.8	3%	0	7	-1.5
Cc1cc(NS(=O)(=O)c2ccccc2)ccc1NS(=O)(=O)c1ccccc1	2.1	1%	-11	-21	-0.5
CC(C)(C)OC(=O)N1CCc2onc(-c3ccc(Cl)cc3)c2C1=O	-2.4	-8%	-5	-3	3.1
C[C@@H]1CN([C@@H](C)CO)C(=O)CCCn2nncc2CO[C@@H]1CN(C)C(=O)Cc1ccccc1	-2.3&-2.7&0.4	2%	4&-1	7&5	-2.6&-2.2
COC1OC2COC(c3ccccc3)OC2C(=O)C1NC(=O)c1ccccc1 (configuration not stated)	-3.1	-8%	-1	5	-1.6
COc1ccc(C=NNc2nc3ccccc3s2)cc1	-0.8	-6%	-7	16	4.2
CC[C@]1(C(=O)OC)[C@H]2C(=O)N(C)C(=O)[C@H]2[C@H]2CN=C(SC)N21	-3.4	-3%	18	9	1.0
CN(C)Cc1c(OC(=O)c2ccc(N)cc2)ccc2ccccc12	-3.7	2%	-6	6	-0.2
CC(C)c1ccc(S(=O)(=O)N2CCN(C(=O)CCc3nc4ccccc4c(=O)[nH]3)CC2)cc1	0.7	-16%	15	6	12
COc1ccc(C2CC(c3ccccc3Cl)=NN2c2ccc(S(N)(=O)=O)cc2)cc1 (configuration not stated)	-9.4	-1%	-12	-3	0.8
O=C(Nc1nc2ccccc2s1)c1ccc2c(c1)S(=O)(=O)c1ccccc1C2=O	-4.0	28%	18	4	3.6
N#Cc1ccc(NC(=S)NC(=O)C2CC2)cc1	-2.3	-5%	-7	-6	-5.3
COc1ccc(CNC(=O)c2ccc(CS(=O)(=O)c3ccc(OC)cc3)o2)cc1	-8.8	6%	-2	3	-0.1
COc1ccc(C(CNC(=O)C(C)(C)Oc2ccc(Cl)cc2)N2CCOCC2)cc1 (configuration not stated)	7.0	4%	-8	-12	2.1
Cn1c(=O)c2c(ncn2CC(=O)OCC(=O)Nc2cccc(C#N)c2)n(C)c1=O	-0.7	-2%	7	16	2.6
COc1ccc(OC)c(C=NN=Cc2cc(OC)ccc2OC)c1	0.1	-6%	4	10	5.7
O=C(Nc1cccc(C(=O)N2CCCCC2)c1)c1ccccc1	-4.7	5%	1	1	-3.5
CN(Cc1ccccc1)C(=O)c1ccc(NC(=O)Cc2ccc(NC(=O)C3CCCN(S(=O)(=O)c4cccc([N+](=O)[O-])c4)C3)cc2)cc1 (configuration not stated)	-2.4	0%	9	12	2.3
CCOC(=O)C1(c2ccccc2)SC(C(=O)OCC)(c2ccccc2)S1 (configuration not stated)	-1.2	13%	3	0	-4.8
Cc1ccccc1OCc1nnc(SC(C)C(=O)O)n1-c1ccccc1 (configuration not stated)	0.0	2%	3	1	-1.4
COc1cccc2c1C(=O)c1c(O)c3c(c(O)c1C2=O)CC(O)(C(C)=NNC(=O)c1ccc(Cl)c(Cl)c1)CC3OC1CC(N)C(O)C(C)O1 (configuration not stated)	34*	32%	14	-78	45
O=C1OCCN1C(=O)[C@H]1[C@H](c2ccc([N+](=O)[O-])cc2)C(c2cccc(Cl)c2)=NN1c1ccc(Br)cc1	0.0	-6%	13	20	-1.0
Cc1cc(C(C)(C)C)ccc1Oc1cccc2c1S(=O)(=O)N(C1CCCC1)CC(COCc1ccccc1)O2 (configuration not stated)	-1.3	-3%	0	6	-3.8
C=CCc1cc(CN2CC(C)OC(C)C2)c(O)c(OC)c1 (configuration not stated)	-1.1	-1%	6	11	0.9
O=C(NCCC(=O)N1CCN(S(=O)(=O)c2ccc(Cl)cc2)CC1)Nc1ccccc1	-0.5	1%	-1	3	1.3
CN(C)Cc1c[nH]c2nccnc12	-3.0	6%	3	8	-2.6
C[C@@H]1CCCCO[C@@H](CN(C)S(=O)(=O)c2ccccc2)[C@@H](C)CN([C@H](C)CO)C(=O)c2cc(N(C)C)ccc2O1	10&1.8	-4%	5&-2	5&3	4.5&1.0
CC(C)(C)S(=O)N1Cc2cn(Cc3ccccc3)c(=O)cc2[C@H]1CCO (some centres not stated)	-0.8	0%	22	3	10.0
CCN(C(=S)Nc1cccc2ccccc12)c1ccccc1	6.2	7%	5	-3	-3.2
OCC[C@@H]1NCc2cc(CO)cc(-c3ccccc3)c21	-1.2	-6%	4	3	-1.8

Next part (4 carried over from the part before).
SMILES	AF4-AF9 inh	Vif TR-FRET	rRNA inh HTS	rRNA inh HTS OD600	rRNA inh HTS RFP
C[C@@H]1CCCCO[C@@H](CN(C)S(=O)(=O)c2ccccc2)[C@@H](C)CN([C@H](C)CO)C(=O)c2cc(N(C)C)ccc2O1	10&1.8	-4%	5&-2	5&3	4.5&1.0
CC(C)(C)S(=O)N1Cc2cn(Cc3ccccc3)c(=O)cc2[C@H]1CCO (some centres not stated)	-0.8	0%	22	3	10.0
CCN(C(=S)Nc1cccc2ccccc12)c1ccccc1	6.2	7%	5	-3	-3.2
OCC[C@@H]1NCc2cc(CO)cc(-c3ccccc3)c21	-1.2	-6%	4	3	-1.8
Oc1[nH]c2ccccc2c1N=Nc1ccccn1	-0.3	-7%	16	12	-2.4
N#Cc1cnn2c(=O)[nH]cnc12	-1.6	-1%	11	20	-0.9
COc1ccc(C(=O)NCC(c2ccco2)N2CCc3ccccc3C2)c(OC)c1 (configuration not stated)	0.1	-9%	-5	-18	12
O=C1OCCN1C(=O)[C@H]1[C@H](c2ccc([N+](=O)[O-])cc2)C(c2ccccc2)=NN1c1ccccc1	0.0	6%	16	12	2.4
COc1cc(/C=C/C(=O)NNC(=O)c2cccc(S(=O)(=O)N(C)C)c2)cc(OC)c1OC	-1.1	-2%	3	5	-0.7
NNC(=O)Cc1cc(=O)[nH][nH]1	-6.0	11%	9	6	-0.2
Cc1cccc(NC(=O)CN2CCN(C(=O)c3cc(C4CC4)nn3-c3ccccc3)CC2)c1C	-3.8	3%	4	18	-5.0
O=C(OCC(=O)N1CCCCC1)c1n[nH]c(=O)c2ccccc12	-2.6	0%	9	6	-0.1
